# GLA inh pH 4.5 = qHTS Assay for Inhibitors of Human alpha-Galactosidase at pH 4.5 | Alpha-galactosidase A (Homo sapiens), P06280 | purified enzyme, 4-MU-alpha-Gal fluorescence, pH 4.5 | activity change, negative = inhibition, % at 105 µM | 230,000 tested, under 10 active | AID 1467, 2008; inconclusive = small, poorly fitted or top-dose-only inhibition, or a rising curve; inactive = flat fitted curve, though single readings scatter; no compound was filed as active;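 also: 0% = full activity with enzyme and -100% = basal without enzyme; dose as in the result columns while the protocol names 77 µM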
# Rango dissoc inh = qHTS Assay for Inhibitors of RanGTP induced Rango (Ran-regulated importin-beta cargo) - Importin beta complex dissociation; Snurportin-1 (Homo sapiens) + GTP-binding nuclear protein Ran (Homo sapiens) + Importin …; Biochemical FRET Rango-importin beta, RanGTP-induced dissociation; Potency, µM (series often up to 46.1 µM), for inactives: at the highest dose activity change, negative = inhibition; actives 0.071% (n = 340,000); AID 540253, 2011; active means falling FRET ratio curve, often poorly fitted, with flat reads before Ran was added; inconclusive means other falling curves, or compound fluorescence or quenching; inactive means flat or rising ratio curve;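 also: potency is read from the fitted curve at half-maximal effect; % of control where 0% means no effect; nearly all actives have a fitted effect of over 45% in size; -100% = wells without RanGTP and RCC1; the record marks most hits as doubtful in a second field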
#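 FRET read at 45 min, room temperature: inhibitors block the CFP/YFP signal rise when RanGTP (0.6 uM Ran, 2 mM GTP, 0.2 uM RCC1) frees Rango (0.1 uM) from importin beta (0.25 uM). Pre-read after 5 min compound exposure flags interference.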
# Rango complex inh = qHTS Assay for Inhibitors of Rango (Ran-regulated importin-beta cargo) - Importin beta complex formation; actives 0.031% (n = 340,000); Importin subunit beta-1 (Homo sapiens), Q14974; Potency, µM (series often up to 92.2 µM), for inactives: top-dose inhibition of complex formation; Rango CFP/YFP FRET sensor + importin beta, 45 min; active = rising FRET ratio curve, often small or poorly fitted; inconclusive = mostly compound fluorescence or quenching in the first reads; inactive = flat curves in all reads;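 also: potency is read from the fitted curve at half-maximal effect; 0% = DMSO wells and 100% = buffer wells lacking importin beta; nearly all actives have a fitted effect of over 15% in size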
# Target sequence (Q14974 whole entry, looked up): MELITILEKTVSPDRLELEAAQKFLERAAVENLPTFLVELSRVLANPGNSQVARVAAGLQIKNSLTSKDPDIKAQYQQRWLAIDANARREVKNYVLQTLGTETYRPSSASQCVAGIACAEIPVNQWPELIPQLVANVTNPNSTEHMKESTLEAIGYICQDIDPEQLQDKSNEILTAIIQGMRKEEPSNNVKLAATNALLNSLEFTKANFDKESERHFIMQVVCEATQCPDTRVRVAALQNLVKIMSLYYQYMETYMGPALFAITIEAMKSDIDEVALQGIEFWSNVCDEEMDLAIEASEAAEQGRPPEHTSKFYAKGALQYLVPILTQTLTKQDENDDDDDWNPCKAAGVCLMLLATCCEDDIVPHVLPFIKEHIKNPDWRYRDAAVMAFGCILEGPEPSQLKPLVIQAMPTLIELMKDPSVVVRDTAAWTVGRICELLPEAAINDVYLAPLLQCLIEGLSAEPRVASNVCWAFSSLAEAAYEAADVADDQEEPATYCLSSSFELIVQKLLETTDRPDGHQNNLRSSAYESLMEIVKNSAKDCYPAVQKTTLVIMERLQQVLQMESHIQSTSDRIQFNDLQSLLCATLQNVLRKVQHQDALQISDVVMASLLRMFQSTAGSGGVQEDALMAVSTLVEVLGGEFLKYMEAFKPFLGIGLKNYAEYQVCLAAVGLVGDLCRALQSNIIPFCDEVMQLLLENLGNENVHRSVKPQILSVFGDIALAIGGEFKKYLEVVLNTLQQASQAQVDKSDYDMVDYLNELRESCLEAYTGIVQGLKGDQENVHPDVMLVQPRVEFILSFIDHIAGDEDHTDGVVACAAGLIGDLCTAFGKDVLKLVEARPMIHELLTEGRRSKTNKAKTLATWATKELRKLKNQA
#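 FRET biosensor (snurportin 1 IBB flanked by EYFP and cerulean), 50 nM, with compound 5 min, then 0.125 microM importin beta in PBS, 1 mM DTT, 0.02% Tween-20, 0.1% BSA. CFP/YFP ratio read after 45 min at room temperature; pre-read flags interference.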
# miR-21 reporter = qHTS Assay for Modulators of miRNAs and/orActivators of miR-21. AID 2288, 2010. Potency, µM (titrated, usually from 38.3 µM), inactives show at the top dose reporter change, positive = more light. 340,000 tested, under 10 active. HeLa miR-21 FLuc reporter, luciferase, 48 h; active = well fitted rising curve with a large enough effect; inconclusive = small, poorly fitted or top-dose-only effect; inactive = no such curve, though single readings can be large or run the other way;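 also: % of control where 0% means no effect; miR-21 action dims this reporter so a rising signal means less miR-21 action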
#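 HeLa cells endogenously expressing miR-21, stably carrying CMV-driven firefly luciferase with a downstream miR-21 binding site, 2000 cells/well. Titrations up to approximately 40 uM, 48 hours; luciferase luminescence read.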
# Numbers without * were called inactive; ? = inconclusive; / = not tested or not shown; & = joins results of further samples; [ ] = dose if it differs, or a comment.
item	canonical_smiles	GLA inh pH 4.5	Rango dissoc inh
1	CC1=C(C(=O)Nc2ccc(C)cc2)C(c2ccco2)NC(=O)N1 (stereo not given)	-6.4	6.8%
2	CC(=O)Nc1ccc(-c2csc(NC(=O)Cc3ccccc3F)n2)cc1	/	0.2%
3	Cc1c(/C=N/NC(=O)c2cc(Br)ccc2O)c(=O)n(C)c(=O)n1C	/	3.2%
4	O=C(/C(C=Nc1cccc(C(F)(F)F)c1)=C(/O)c1ccco1)C(F)(F)F	1.8	?
5	COc1cc(NC(=O)CSc2nnc3c(C)cc4c(C)ccc(C)c4n23)c(C(=O)O)cc1OC	2.7	-7.8%
6	Cc1nn(-c2ccccc2)c(Cl)c1C1C(C#N)=C(N)OC2=C1C(=O)CCC2 (stereo not given)	11.6	-13.4%
7	CCOC(=O)c1c(NC(=O)CCC(=O)N2CCOCC2)sc2c1CC(C)(C)OC2	-19.4	7.7%
8	COC(=O)C1=C(C(=O)c2ccccc2)C(c2ccc(OC)c(OC)c2)Nc2nnnn21 (stereo not given)	-7.4	-16.0%
9	CCN1CCN(C(=O)c2ccc(CN(c3ccccc3)S(=O)(=O)c3ccccc3)cc2)CC1	0.5	-11.4%
10	CN(Cc1ccccc1)C(=O)c1cccc(NC(=O)Cc2ccc(NC(=O)C3CCCN(C(=O)C4CCCC4)C3)cc2)c1 (stereo not given)	/	-11.8%
11	c1ccc2nc3[nH]cnc3nc2c1	15.8	-6.2%
12	COC(=O)Cn1cnc2c1c(=O)n(C)c(=O)n2C	5.1	2.0%

item	Rango complex inh	miR-21 reporter
1	-3.4%	-3.3%
2	2.7%	-3.0%
3	1.4%	-2.6%
4	?	-53.0%
5	-1.0%	-1.5%
6	-3.7%	1.9%
7	-0.4%	2.0%
8	?	-3.5%
9	-1.2%	-1.1%
10	-3.6%	/
11	6.2%	-10.6%
12	-1.5%	-3.1%

# Later entries.
item	canonical_smiles	GLA inh pH 4.5	Rango dissoc inh
13	COc1cccc(OC)c1C(=O)NC(=O)Nc1c(C)cccc1C	/	-2.4%
14	O=C(CN1C(=O)/C(=C/c2ccccc2F)SC1=S)NC1C=CS(=O)(=O)C1 (stereo not given)	/	39.0%
15	NC(=O)C1CCN(C(=O)c2ccc([N+](=O)[O-])cc2NC(=O)c2cccs2)CC1	/	17.5%
16	CCN1CCN(c2cc(C)nc(-c3ccccc3O)n2)CC1	-11.1	-14.9%
17	Cc1cccc(NC(=O)C2=C(O)c3ccccc3N(C)S2(=O)=O)c1	4.8	10.6%
18	CCOC(=O)C1=C(N)Oc2c(oc(CO)cc2=O)C1c1ccc(F)cc1 (stereo not given)	-19.1	18.1%
19	O=C1CC(c2cccs2)c2ccc3ccccc3c2N1 (stereo not given)	-13.6	0.3%
20	CC(CNS(=O)(=O)c1ccccc1)(c1ccccc1)N1CCCCC1 (stereo not given)	-3.5	1.9%
21	COc1ccc2ccccc2c1/C=N/NC(=O)c1nnn(-c2nonc2N)c1CN(C)C	/	9.3%
22	CCCNC(=O)COC(=O)c1cc(C)nc2ccccc12	3.1	-1.1%
23	CN(CCN1CCOCC1)C(=O)c1cc(COc2ccc(F)c(F)c2)on1	/	5.0%
24	COC(=O)c1ccc(NC(=O)CSc2nc3ccccc3c(=O)[nH]2)cc1	-5.6	5.8%

item	Rango complex inh	miR-21 reporter
13	0.2%	-5.9%
14	-0.9%	-0.6%
15	0.4%	-5.3%
16	-3.1%	-7.0%
17	2.7%	-7.4%
18	-0.6%	-3.9%
19	-2.1%	-4.7%
20	1.2%	-1.4%
21	-4.4%	5.6%
22	-3.5%	3.8%
23	4.4%	-22.2%
24	-0.2%	8.0%

# Other structures
item	canonical_smiles	GLA inh pH 4.5	Rango dissoc inh
25	NC(=O)C1CCN(C2CC(=O)N(Cc3ccc(N4CCCC4=O)cc3)C2=O)CC1 (stereo not given)	6.8	4.6%
26	Cn1c(N)c(C(=O)COC(=O)C23CC4CC(CC(C4)C2)C3)c(=O)n(C)c1=O	-0.6	10.5%
27	Cc1ccc(NC(=O)C2CCN(S(=O)(=O)c3ccc4c(c3)NC(=O)CO4)CC2)cc1C	/	-1.7%
28	Cc1c(NC(=O)CN2C(=O)c3ccccc3S2(=O)=O)c(=O)n(-c2ccccc2)n1C	0.5	2.7%
29	COc1ccc(NC(=O)C2CC(=O)N/C(=N/N=C/c3ccccc3)S2)cc1 (stereo not given)	-5.5	3.2%
30	CCN1C(Nc2ccccc2)=NC[C@@H]1C	/	2.6%
31	CCNC(=O)c1cc(S(=O)(=O)N2CCSCC2)ccc1OC	/	1.3%
32	O=C(CCCCl)NC(=S)Nc1ccc(CN2CCOCC2)cc1	-5.7	4.7%
33	O=C(Nc1cccc(C(=O)O)c1)/C(=C\c1ccco1)NC(=O)c1ccccc1	/	-1.9%
34	Cc1ccc(N(CC(=O)Nc2ccc(C)cn2)S(=O)(=O)c2c(C)nn(C)c2C)cc1	4.0	-1.2%
35	COc1ccc(S(=O)(=O)NCC2CCCO2)cc1NC(=O)c1ccc(Cl)cc1 (stereo not given)	/	7.1%
36	CC(C)CCNc1ncnc2c1nnn2Cc1ccccc1	/	16.8%

item	Rango complex inh	miR-21 reporter
25	4.5%	-0.3%
26	-2.2%	-0.8%
27	0.3%	10.3%
28	2.2%	-8.2%
29	5.7%	3.6%
30	-4.9%	-6.4%
31	-1.5%	-0.5%
32	-4.5%	-13.0%
33	0.5%	0.6%
34	-2.2%	3.5%
35	4.0%	/
36	0.3%	-3.1%

# Compound profiles, from the list above. Values in the order: GLA inh pH 4.5, Rango dissoc inh, Rango complex inh, miR-21 reporter
# COc1ccc(NC(=O)C2CC(=O)N/C(=N/N=C/c3ccccc3)S2)cc1 (stereo not given) as listed: -5.5, 3.2%, 5.7%, 3.6%
# CCN1C(Nc2ccccc2)=NC[C@@H]1C as listed: /, 2.6%, -4.9%, -6.4%
# Cc1c(NC(=O)CN2C(=O)c3ccccc3S2(=O)=O)c(=O)n(-c2ccccc2)n1C as listed: 0.5, 2.7%, 2.2%, -8.2%
# Cc1ccc(NC(=O)C2CCN(S(=O)(=O)c3ccc4c(c3)NC(=O)CO4)CC2)cc1C as listed: /, -1.7%, 0.3%, 10.3%
# CC(C)CCNc1ncnc2c1nnn2Cc1ccccc1 as listed: /, 16.8%, 0.3%, -3.1%

# Continuation:
item	canonical_smiles	GLA inh pH 4.5	Rango dissoc inh
37	CC(=O)N1CCN(CC(=O)Nc2cccc(S(=O)(=O)N3CCCCCC3)c2)CC1	-1.1	-10.0%
38	COC(=O)CN1C(=O)COc2ccc(S(=O)(=O)NCc3ccccc3)cc21	/	-1.7%
39	CCC(=O)c1ccc(OCC(=O)NCC2(N3CCCCC3)CCCCC2)cc1	-10.0	5.9%
40	CCOC(=O)c1c(NC(=S)NC(=O)c2ccco2)sc2c1CCCC2	3.5	5.0%
41	C[C@H](C(=O)C=[N+]=[N-])N1C(=O)c2ccccc2C1=O	-29.5	/
42	COc1cc(CC(=O)OCn2nnc3ccccc3c2=O)cc(OC)c1OC	7.0	-2.3%
43	CCCC(=O)N1CCN(c2nc3ccc(Cl)cc3s2)CC1	/	0.7%
44	O=C(NC1CCCCC1)C1c2ccccc2C(=O)N1Cc1ccco1 (stereo not given)	-3.5	-0.5%
45	COc1ccc(/C=C(\C#N)C(=O)OCC(=O)NCc2ccccc2)cc1	15.4	7.0%
46	CCCNC(=O)/C=C/C(=O)O	-4.6	1.4%
47	COc1cc(CCCN2C(=O)C(=O)NC[C@H]2Cc2cccc3ccccc23)cc(OC)c1OC	/	?
48	CCN(CC)S(=O)(=O)c1ccc2oc(C(=O)Nc3ccc(OC)cc3OC)c(C)c2c1	-6.3	8.2%

item	Rango complex inh	miR-21 reporter
37	-0.4%	-1.5%
38	1.0%	0.3%
39	-1.6%	-1.4%
40	-0.2%	-3.6%
41	/	0.2%
42	3.8%	-1.8%
43	0.0%	-15.6%
44	?	-4.9%
45	-1.6%	1.9%
46	0.4%	2.8%
47	-2.9%	/
48	1.7%	-7.0%

# Continued.
item	canonical_smiles	GLA inh pH 4.5	Rango dissoc inh
49	COC(=O)C1=C(C)NC2=C(C(=O)CCC2)C1c1cccc(C)n1 (stereo not given)	?	?
50	Cc1ccn2c(c1)nc(=O)c1cc(S(=O)(=O)N3CCCCC3)ccc12	/	0.1%
51	CCOC(=O)CC1C(=O)NCCN1C(=O)c1ccc(F)cc1F (stereo not given)	4.5	-17.0%
52	COC(=O)c1cc(S(=O)(=O)N(C)C2CCCCC2)c[nH]1	/	29.2%
53	Cc1cccc(C(=O)Nc2sc(C)c(-c3ccccc3)c2C#N)c1	-1.8	-1.0%
54	CC1CCN(C(=O)CN(Cc2ccccc2)S(C)(=O)=O)CC1	/	-18.6%
55	NS(=O)(=O)c1ccc(S(=O)(=O)N(Cc2ccccc2F)CC2CCCO2)cc1 (stereo not given)	-2.6	-19.1%
56	O=C(O)/C=C/C(=O)N1CCN(Cc2ccc3c(c2)OCO3)CC1	/	-2.8%
57	O=C(O)c1ccccc1C1Nc2ccccc2C(=O)N1CCCN1CCOCC1 (stereo not given)	8.2	-6.4%
58	CCCCn1c(SCC(=O)/C(C#N)=C(\C)N)nc2ccccc2c1=O	-3.6	-0.6%
59	COc1ccc(C(=O)OCC(=O)NC2CC2)cc1S(=O)(=O)Nc1ccc(C)cc1	/	-12.5%
60	CCOC(=O)CSc1nnc(-c2ccc3ncccc3c2)n1C	-7.5	3.1%

item	Rango complex inh	miR-21 reporter
49	?	3.0%
50	-0.2%	9.5%&2.6%
51	-1.8%	-0.4%
52	1.6%	-0.9%
53	-5.0%	-39.8%
54	-0.8%	-0.9%
55	0.2%	-2.9%
56	-0.6%	-3.0%
57	-0.4%	-1.4%
58	-0.7%	-5.4%
59	0.6%	/
60	-0.5%	8.0%

# New compounds follow
item	canonical_smiles	GLA inh pH 4.5	Rango dissoc inh
61	COc1ccc(C(=O)Nc2c(Cl)cc(Cl)cc2C(=O)N2CCC(C)CC2)cc1	-1.5	0.2%
62	CCCOc1ncnc2c1[nH]c1ccc(OC)cc12	-17.0	3.1%
63	COc1ccc(NC(=O)c2cccnc2SC)cc1OC	2.5[21.1 µM]	-5.7%
64	Cc1ccc(C(C#N)c2ccc(C(=O)c3ccc(F)cc3)cc2)cc1 (stereo not given)	4.1	3.5%
65	Cn1c(=O)[nH]c(NC2CCCCC2)c([N+](=O)[O-])c1=O	11.8	6.0%
66	Cc1ccc(OCc2n[nH]c(=S)n2-c2ccc(C)cc2)cc1	4.1	-2.9%
67	Cc1ccc(S(=O)(=O)N(C)C)cc1NC(=O)c1cccnc1Oc1ccccc1	-3.4	16.1%
68	COc1ccc(OC)c(/C=C(\NC(=O)c2ccccc2)C(=O)N/N=C/c2ccc(C)s2)c1	-3.9	-25.4%
69	O=S(=O)(c1ccccc1)N1CCN(c2ncnc3sc(-c4ccccc4)cc23)CC1	2.6	5.7%
70	COC(=O)c1ccccc1NC(=O)C1CCN(C(=O)c2ccc(OC)cc2)CC1	-23.4	-5.8%
71	C/C=C\C=C/C(=O)Nc1cccc(C2=NOC3(C2)C[C@@H](C(N)=O)N(C(=O)/C=C/C=C\C)C3)c1 (stereo not given in full)	2.4	-16.3%
72	CC(=O)c1ccc(NC(=O)CN2CCOCC2)cc1	/	-3.0%

item	Rango complex inh	miR-21 reporter
61	1.0%	-9.8%
62	-1.1%	-42.9%
63	6.4%	-8.4%
64	3.9%	14.3%
65	-1.1%	-2.8%
66	-0.9%	-2.5%
67	3.5%	4.7%
68	?	-8.4%
69	1.5%	2.0%
70	-0.4%	-16.0%
71	-2.7%	0.7%
72	0.0%	-10.4%

# Screens from PubChem.

# Not all compounds are listed; rates above refer to the full screens.
